ALR inh = inhibitors of human ALR sulfhydryl oxidase, primary screen, biochemical, H2O2 detection, HRP-luminol luminescence, single point | FAD-linked sulfhydryl oxidase ALR (Homo sapiens), P55789 | purified ALR, DTT oxidation | inhibition, % (test concentration not listed) | 290,000 tested, 3.8% active | AID 485317, 2010;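 active means mean and each replicate at 75% or more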;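 further: stock transfer was 7.5 nL into about 7.5 µL; 0% = neutral wells and 100% = wells with inactivated enzyme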
Target sequence (P55789 whole entry, looked up): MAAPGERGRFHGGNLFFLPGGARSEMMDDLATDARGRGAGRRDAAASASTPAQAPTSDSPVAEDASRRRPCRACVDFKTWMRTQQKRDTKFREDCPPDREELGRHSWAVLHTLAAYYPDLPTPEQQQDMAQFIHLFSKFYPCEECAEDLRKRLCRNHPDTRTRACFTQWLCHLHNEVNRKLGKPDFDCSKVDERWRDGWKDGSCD
FGF22 binding = binders of human FGF22 protein, primary screen, FGF22 synaptogenesis inhibitor project, biophysical, thermal shift, single point; Fibroblast growth factor 22 (Homo sapiens), Q9HCT0; recombinant FGF22 thermal shift, SYPRO orange fluorescence; percent of sucrose octasulfate shift, DMSO zero; calls only at 9.99 µM; 340,000 tested, 1.5% active; AID 651658, 2012;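 active means melting point raised past a set limit in the mean and every replicate; three in four hits are not shown here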
Target sequence (Q9HCT0 whole entry, looked up): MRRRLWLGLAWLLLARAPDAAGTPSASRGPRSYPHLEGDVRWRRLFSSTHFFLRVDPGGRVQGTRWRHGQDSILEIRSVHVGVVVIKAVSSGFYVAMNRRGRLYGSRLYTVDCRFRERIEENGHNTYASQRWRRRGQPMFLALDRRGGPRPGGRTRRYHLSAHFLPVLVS
E coli growth = E. coli growth inhibition, primary screen, OD600. Escherichia coli growth, 23 h; active compounds read low. OD600 absorbance (no concentration beside the values). 330,000 tested, 0.21% active. AID 1053175, 2014;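 active means OD600 absorbance below the run mean of sample wells minus 3.6 SD, in any replicate, cut at about 0.56 in these data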;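 further: stock transfer was 300 nL into about 60 µL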
UCH37 inh = inhibitors of human UCH37 deubiquitinase, primary screen, biochemical, Ub-AMC cleavage, fluorescence. purified proteasome/UCH37. inhibition, % (concentration not given with the values). 330,000 tested, 0.33% active. AID 588478, 2011;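 active means mean of two replicates above 20%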;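 further: 0% = compound-free wells with enzyme and 100% = wells lacking proteasome; stock transfer was 100 nL into about 20 µL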
Target sequence (Q9Y5K5 whole entry, looked up): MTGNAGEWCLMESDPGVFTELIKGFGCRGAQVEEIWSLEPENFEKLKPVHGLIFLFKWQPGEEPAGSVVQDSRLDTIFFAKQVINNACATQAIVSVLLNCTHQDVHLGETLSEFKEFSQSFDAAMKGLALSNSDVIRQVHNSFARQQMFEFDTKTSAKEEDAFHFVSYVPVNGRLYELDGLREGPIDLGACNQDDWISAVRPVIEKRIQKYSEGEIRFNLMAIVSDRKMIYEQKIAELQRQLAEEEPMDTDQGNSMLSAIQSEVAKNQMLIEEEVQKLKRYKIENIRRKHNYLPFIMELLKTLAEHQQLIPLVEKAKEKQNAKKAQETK
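Material: Human UCH37 enzyme supplied as purified proteasome complex | Schedule: 30 min preincubation with enzyme, 25 min cleavage at room temperature | Detection: AMC fluorescence 355/460 nm | Measure: % inhibition of Ub-AMC cleavage fluorescence | Controls: Wells without proteasome as full block, compound-free enzyme plus substrate as uninhibited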
HNF4A DNA FP = change in binding of human HNF4A to DNA, primary screen, biochemical, fluorescence polarization, FITC-DNA; AID 1224865, 2016; 360,000 tested, 0.3% active; 1 h; activity change, % at 10 µM; in the data active means activity change above about 30%, passing the limit was not always enough;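 further: controls were the assay level and a saturating level of protein; the project sought stronger binding though the title names inhibitors; some compounds called inactive have numbers as strong as hits; positive values seem to mean higher polarization but the record does not say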
B2AR ag = beta2AR agonists driving receptor internalization, primary screen, cell-based, FAP fluorogen, flow cytometry; Am2.2-beta2AR cells; reference of the scale not given here; 340,000 tested, 0.43% active; Beta-2 adrenergic receptor (Homo sapiens), P07550; response, % (test concentration not listed);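 active means response above a set limit, near 3 SD of response in nonfluorescent compounds, cut at about 42% in these data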;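 further: stock transfer was 100 nL into about 11 µL; a reference agonist was the positive control; negative values mostly stem from fluorescent compounds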
LANA-H2B inh = blockers of LANA interaction with H2A/H2B – biochemical, FP readout, HTS, primary screen. inhibition, % (concentration not given with the values). 320,000 tested, 0.6% active. cell-free LANA-H2A/H2B peptide, fluorescence polarization. Protein LANA1 (Human herpesvirus 8 type P (isolate GK18)), Q9QR71. AID 2629, 2010; in the data active means inhibition mostly above about 10%, no sharp cut-off; inactive means mostly below about 6.7%;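 further: stock transfer was 7.5 nL into about 10 µL; 0% = median of vehicle wells and 100% = median of positive control wells; one replicate is shown; the record names a cut of 25% in any replicate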
An asterisk follows results filed as active; i = inactive; nt = no result given; + = active, no number.

compound,ALR inh,FGF22 binding,E coli growth,UCH37 inh,HNF4A DNA FP,B2AR ag,LANA-H2B inh
O=C(NCCCN1CCCC1=O)c1cc(-c2cccnc2)nc2ccc(Cl)cc12,-1,i,0.71,0.1,2.7,-6,2.2
COc1ccc(CN(CC(=O)NCc2ccco2)C(=O)CCC(=O)Nc2nccs2)cc1,3,nt,0.75,3.0,-1.4,7,-0.5
Oc1cccc(/C=N/Nc2ccc(Cl)nn2)c1O,0,i,nt,nt,-0.7,3,-2.4
CCCCCCSc1nsc(N)n1,nt,nt,0.65,1.0,-1.5,-2,1.8
CCOc1cc(/C=N\NC(=O)c2ccc(NC(=O)CC)cc2)ccc1OC(=O)c1ccccc1,-7,nt,nt,nt,0.5,6,1.1
Cc1cccc(NC(=O)c2ccc3[nH]c(=O)c(=O)[nH]c3c2)n1,-6,i,0.71,-2.9,-4.2,-9,-5.4
COc1ccc(CC(C(=O)Nc2cccc(F)c2)c2nn[nH]n2)c(OC)c1 (centres undefined),-9,nt,0.7,4.5,-1.9,16,-0.4
O=C(CCc1nnc2ccc(NCc3ccco3)nn12)Nc1ccccc1F,-3,i,0.69,3.4,0.6,-10,3.2
Cc1nc(Cl)sc1C(=O)Nc1ccc(C(F)(F)F)cc1,6,nt,0.62,0.3,-2.0,9,0.3
COc1ccc2c(C)cc(SCC(=O)Nc3c(C)n(C)n(-c4ccccc4)c3=O)nc2c1,22,nt,0.77,-2.8,1.4,-1,1.8
CCOC(=O)C1CCN(C(=O)CCCNC(=O)Cn2cnc3sc(C)c(C)c3c2=O)CC1,-1,i,0.65,-1.0,-1.1,2,2.9
CCO[C@H]1OC(C(=O)N2CCN(Cc3ccc4c(c3)OCO4)CC2)=C[C@@H](C)[C@@H]1CCCO,0,+,nt,1.9,-4.5,0,4.9
COc1cccc(CNC(=O)CN2C(=O)CSc3ccc(S(=O)(=O)N4CCCCC4)cc32)c1,-7,i,0.68,-0.7,-1.2,-4,4.2
COc1cccc(/C=C2\SC(=N)N(c3ccc(F)cc3)C2=O)c1,-10,i,0.7,7.5,5.1,2,-1.2
COc1ccc(C(=O)NNS(=O)(=O)c2ccccc2)cc1OC,nt,i,0.7,1.6,-0.4,1,3.0
CC[C@@]12C(=O)N(c3cccc(Br)c3)C(=O)N1[C@H](c1ccc(Br)cc1)[C@@H]1C(=O)N(C(C)(C)C)C(=O)[C@@H]12,-23,i,nt,-1.9,3.2,3,-3.9
COc1cc(NC(=O)c2cc(-c3cccnc3)nc3ccc(C)cc23)c(OC)cc1Cl,-17,nt,0.66,-4.5,nt,nt,2.6
O=C(NCCN1CCCCC1)c1ccc2c(c1)OCCO2,-3,nt,0.76,-1.2,0.8,1,0.0
COc1ccc(-n2c(O)c(/C=N/NS(=O)(=O)c3ccc(C)c([N+](=O)[O-])c3)c3ccccc3c2=O)cc1OC,97*,nt,nt,-9.4,172,-286,-9.7
COc1ccc(C(=O)Nc2cc(-c3ccccc3)nn2-c2ccccc2F)cc1,nt,nt,0.66,4.3,1.7,8,-3.1
CCCCOc1ccc(CN2CCC(O)CC2)cc1,5,nt,0.65,0.0,-4.4,-10,6.0
COC(=O)C1=C(C)N(Cc2ccccc2)C(=O)N[C@H]1CCc1ccccc1,3,i,nt,3.7,1.4,-13,-0.8
COc1ccc(C(CNC(=O)c2c(C)nn(Cc3ccccc3)c2Cl)N2CCOCC2)cc1 (centres undefined),-2,i,0.67,1.1,-0.2,4,-0.9
O=C(COC(=O)c1ccc(S(=O)(=O)N2CCCCCC2)cc1)NCc1ccc(Cl)cc1,-1,i,0.71,-1.4,2.2,-1,4.0
CCCN1CCN(CCCNC(=O)CN2C(=O)COc3ccccc32)CC1,-4,nt,0.71,0.5,0.9,-4,-3.3

Individual results from the results shown:
Under B2AR ag, `O=C(CCc1nnc2ccc(NCc3ccco3)nn12)Nc1ccccc1F` shows -10
Under ALR inh, `CCO[C@H]1OC(C(=O)N2CCN(Cc3ccc4c(c3)OCO4)CC2)=C[C@@H](C)[C@@H]1CCCO` shows 0

New compounds follow
compound,ALR inh,FGF22 binding,E coli growth,UCH37 inh,HNF4A DNA FP,B2AR ag,LANA-H2B inh
COc1ccc(C2/C(=C(/O)c3ccc(C)cc3)C(=O)C(=O)N2c2ccccn2)cc1OC (centres undefined),-5,nt,0.65,10.0,2.1,1,-0.2
Cc1ccc(NC(=O)N(CCC(=O)O)Cc2ccccc2)cc1,nt,i,nt,nt,1.8,-5,-2.0
O=c1c(Cc2ccc(F)cc2)c(O)ccn1CCCN1CCOCC1,nt,i,0.66,3.4,-4.0,2,1.9
CCCCC[C@@H]1C=C(C(=O)O)[C@H](c2ccc(Br)cc2)N1S(=O)(=O)c1ccc(C)cc1,nt,i,0.69,3.5,-0.5,4,nt
Cc1ccc(S(=O)(=O)Nc2nc(C)c(C(=O)N/N=C/c3ccccc3)s2)cc1,-19,i,nt,nt,-11,3,5.0
O=C(OCc1cc2ccccc2[nH]c1=O)c1cccnc1,-6,nt,0.75,3.1,3.8,-14,-7.0
CN(C)/C=C/C(=O)c1ccccc1F,18,nt,0.69,7.0,5.5,9,0.1
COc1ccccc1NC(=O)Nc1nc(CC(=O)N2CCN(c3ccccc3F)CC2)cs1,34,i,0.65,3.6,1.8,9,-3.2
CN1CCN(Cc2c(C(=O)N/N=C/c3cccc(Br)c3)nnn2-c2nonc2N)CC1,-20,i,nt,nt,-1.1,23,0.0
CCOc1ccc(C(=O)N[C@H](C(=O)Nc2ccc(OC)c(S(=O)(=O)N3CCOCC3)c2)C(C)C)cc1,-5,i,0.65,3.7,-0.3,-2,7.5
Cc1ccc(NC(=O)CCN2C(=O)c3ccccc3C2=O)cc1C,-9,nt,0.64,5.2,1.8,-9,5.2
Cc1ccc(/C=N/n2c(COc3ccccc3)n[nH]c2=S)o1,60,i,nt,nt,0.2,8,4.5
Cc1cc(-n2ccc(=O)[nH]c2=O)nc(-c2ccccc2)n1,-8,nt,0.7,-1.4,-3.2,-2,1.9
Cc1ccc(NS(=O)(=O)c2cc(C(=O)NCCSc3ccc(C)cc3)ccc2C)cc1,-3,nt,0.7,2.6,5.5,2,1.6
CCOc1ccc(C(=O)C2CCN(CC(=O)Nc3nccs3)CC2)cc1,nt,i,0.62,2.7,6.3,-19,4.0
S=C(NN=C1CCN(Cc2ccccc2)CC1)NC1CCCCC1,94*,i,0.72,2.0,1.8,-3,-0.2
O=[N+]([O-])c1cccc(CSc2nnc(Cc3ccccc3)n2-c2ccc(F)cc2)c1,-41,i,0.71,2.4,5.2,17,-1.2
CC(C)CN(C(=O)c1nn(C)c(=O)c2ccccc12)c1nc2ccccc2s1,-1,nt,0.67,3.1,4.6,7,0.6
CCOC(=O)C1(Cc2ccccc2)C(=O)Nc2ccccc21 (centres undefined),-1,i,0.69,1.9,2.1,1,3.2
COc1ccc(CN2CCNC(=O)C2CC(=O)NCCC2=CCCCC2)c(F)c1 (centres undefined),nt,i,0.68,6.5,-0.6,-1,-3.5
Cc1cc(C)cc(OCc2nc3ncc(Br)cc3[nH]2)c1,nt,nt,0.67,3.7,6.4,-7,-1.1
O=C(CCCc1nc(-c2ccccc2Cl)no1)NCc1cccnc1,2,nt,0.76,2.2,-0.7,2,-0.7
O=C(Cc1ccc(Br)cc1)OCC(=O)c1ccc[nH]1,-1,i,0.65,-2.1,7.2,0,-2.8
Cc1ccc2nc(N(CCCN(C)C)C(=O)c3ccc4ncsc4c3)sc2c1,-19,i,0.67,0.2,-2.3,15,0.5
Cn1c(SCC(=O)NCC2CCCO2)nc2c([nH]c3ccccc32)c1=O (centres undefined),-6,nt,0.68,-1.4,0.2,-14,0.0

Single records, as listed above. Values in the order: ALR inh | FGF22 binding | E coli growth | UCH37 inh | HNF4A DNA FP | B2AR ag | LANA-H2B inh
Entry for Cc1ccc(S(=O)(=O)Nc2nc(C)c(C(=O)N/N=C/c3ccccc3)s2)cc1 → -19 | i | nt | nt | -11 | 3 | 5.0
Entry for CN(C)/C=C/C(=O)c1ccccc1F → 18 | nt | 0.69 | 7.0 | 5.5 | 9 | 0.1
Entry for Cn1c(SCC(=O)NCC2CCCO2)nc2c([nH]c3ccccc32)c1=O (centres undefined) → -6 | nt | 0.68 | -1.4 | 0.2 | -14 | 0.0
Entry for CN1CCN(Cc2c(C(=O)N/N=C/c3cccc(Br)c3)nnn2-c2nonc2N)CC1 → -20 | i | nt | nt | -1.1 | 23 | 0.0

The results go on:
compound,ALR inh,FGF22 binding,E coli growth,UCH37 inh,HNF4A DNA FP,B2AR ag,LANA-H2B inh
COc1ccc(CC(=O)N[C@@H]2c3cc(OC)c(OC)cc3C[C@H]2O)cc1,nt,i,0.68,-0.2,0.5,-1,nt
CN(C(=S)Nc1ccc(SC(F)F)cc1)c1ccc(O)cc1,81*,i,0.63,1.7,-2.2,3,-2.3
COCc1cc(=O)[nH]c(-c2ccccc2OC(F)(F)F)n1,1,i,0.68,2.1,5.2,0,0.4
Cc1ccc2c(c1)NC(=O)[C@@]1(C)[C@@H](c3ccccc3)[C@H]3COc4ccccc4[C@@H]3N1C2=O,nt,i,nt,4.7,5.5,1,13
CC(=O)C(=Nc1ccccc1Cl)NNc1ccc(Cl)cc1,95*,nt,0.67,3.4,-3.1,-5,-2.7
CC(NC(=O)C(=O)N1CCCCC1)C(c1cccs1)N1CCN(C)CC1 (centres undefined),-5,i,0.65,1.0,-4.4,-3,0.6
COC(=O)c1ccc(Nc2nc(C)cc(C)n2)cc1,-11,nt,0.74,-2.1,3.1,6,2.8
Cn1c(=O)n(-c2cccc(Cl)c2)c(=O)c2c3c(sc21)COC(C)(C)C3,-6,nt,0.7,3.4,1.5,-17,0.1
Cc1cc(/C=C(\C#N)C(=O)Nc2ccccc2)c(C)n1-c1ccc(C(=O)O)cc1,nt,i,0.69,15,-0.2,7,-5.9
N#Cc1ccccc1OCC(=O)Nc1cccc(S(=O)(=O)N2CCCCCC2)c1,-17,i,0.69,3.3,-3.0,3,14
CC1(C)CC(CCN(Cc2ccccc2)C(=O)c2ccco2)(c2ccccc2)CCO1 (centres undefined),-2,i,0.69,3.3,3.2,-6,5.0
O=c1oc2ccccc2c(NCc2ccccc2F)c1[N+](=O)[O-],3,i,0.66,5.8,-0.7,-1,-3.9
CNCc1ccccc1OCc1ccccc1F,9,i,0.68,6.0,1.4,-3,5.0
Oc1c(CN2CCCC2)cc(COCc2ccccc2)c2cccnc12,9,i,nt,4.7,2.0,3,3.0
COc1ccc(S(=O)(=O)Nc2ccc3c(c2)C(=O)N([C@H](C)CO)C[C@H](C)[C@H](CN(C)Cc2ccc(C(=O)O)cc2)O3)cc1,-1,i,0.76,3.3,-4.4,-4,0.2
Cc1cc(OC(=O)c2ccccc2Cl)cc(=O)n1C,37,nt,0.76,2.5,-3.1,0,1.2
CCOc1ccc(N2C(=O)CN(C)C2=S)cc1,-16,i,0.71,3.1,4.0,-5,-9.3
Nc1ccc(S(=O)(=O)c2cc(O)c3ccccc3c2O)cc1,nt,i,nt,nt,1.9,3,nt
COc1ccc2cc(C(=O)C3CCCN(Cc4cnc(N5CCOCC5)s4)C3)ccc2c1 (centres undefined),-34,i,0.65,-31,0.0,3,1.8
COc1ccc(Cn2c(CCC(=O)NCCC(C)C)nc3ncccc3c2=O)cc1,-2,i,0.7,0.5,1.5,-13,-7.2
Cc1ccccc1NC(=S)NNC(=O)c1ccco1,nt,i,0.69,4.8,0.0,-3,nt

Source: PubChem BioAssay

Some of the compounds tested, so the mix of outcomes need not match the whole.
